# SARS PLpro yeast = inhibitors of SARS-CoV papain-like protease in yeast; S. cerevisiae expressing SARS-CoV PLpro, growth rescue; control for the full effect not named in the record; Potency, µM (doses to about 32.9 µM), for inactives: top-dose activity, positive = growth rescue; 330,000 compounds, 0.19% hits; AID 485353; also: 0% is about no effect; nearly all actives have a fitted effect of over 55% in size; growth read by luminescence after 48 h
# Marburg entry inh = blocks Marburg virus binding to or entry into cells; Potency, µM (doses to about 37.8 µM), for the others: top-dose activity change, negative = inhibition, hits mostly inhibitors; Marburg virus pseudotyped entry inhibition, cell reporter; control for the full effect not named in the record; about a third of the inactives were read at about 46 µM; 300,000 compounds, 1.8% hits; active = well fitted inhibition curve with a large enough effect; inconclusive = small, poorly fitted or top-dose-only effect, or effect the other way; inactive = flat fitted curve, though single readings scatter; tested in HEK293 cells; about a fifth of its hits are not listed in these tables; also: % is scaled to controls: 0 for no effect and ±100 for the full control effect; luciferase read-out
# LASV entry inh = blocks Lassa virus binding to or entry into cells; Lassa virus pseudotype entry inhibition, cell reporter; control for the full effect not named in the record; Potency, µM (titrated, usually from 37.9 µM), without a hit: at the highest dose activity change, negative = inhibition, usual class: inhibitors; 300,000 compounds, 1.2% hits; active means well fitted inhibition curve with a large enough effect; inconclusive means small, poorly fitted or top-dose-only effect, or effect the other way; inactive means flat fitted curve, though single readings scatter; tested in HEK293 cells; also: % is scaled to controls: 0 for no effect and ±100 for the full control effect; nearly all actives have a fitted effect of over 50% in size; luciferase read-out
# NS1 function inh = influenza NS1 inhibition; S. cerevisiae slowed by influenza A NS1, growth recovery by OD600; Potency, µM (titrated, usually from 46.1 µM), for the others: at the top dose activity, positive = more growth; 270,000 compounds, 0.4% hits; AID 2326; also: actives are rising curves; nearly all actives have a fitted effect of over 50% in size
#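 A cell-based growth assay was used: compounds that relieve NS1-induced slow growth of budding yeast raise OD600. Assay medium was yeast nitrogen base with ammonium sulphate and -URA supplement, pH 6.0, with 2% galactose.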
# 2A StopGo = lowers the luciferase signal of an FMDV 2A StopGo reporter; Potency, µM (series often up to 57.9 µM), inactives show at the highest dose signal change, negative = less light; human cells with a luciferase reporter of 2A StopGo recoding; control for the full effect not named in the record; 410,000 compounds, 1.2% hits; AID 1159524; active = well fitted falling curve with a large enough effect; inconclusive = small, poorly fitted or top-dose-only effect; inactive = no such curve, though single readings can be large or run the other way; tested in HEK293T cells; also: % is scaled to controls: 0 for no effect and ±100 for the full control effect; nearly all actives have a fitted effect of over 45% in size; luciferase light after 4 h
# Cruzain inh Det = cruzain (T. cruzi) inhibition with detergent; P25779; purified cruzain, Z-FR-AMC fluorescence, 0.01% Triton; Potency, µM, for inactives: max response, negative = inhibition, actives largely listed as inhibitors; 200,000 compounds, 0.43% hits; active = well fitted curve in the direction sought with a large enough effect; inconclusive = small, poorly fitted or top-dose-only effect, or another doubt; inactive = no such curve, though single readings can be large; an effect the other way counts as inactive or inconclusive;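 also: plate controls were neutral wells for no effect and buffer without enzyme for full effect; nearly all actives have a fitted effect of over 40% in size; top concentration of the series not given in the record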
# Target sequence (P25779 123-467 limits assumed): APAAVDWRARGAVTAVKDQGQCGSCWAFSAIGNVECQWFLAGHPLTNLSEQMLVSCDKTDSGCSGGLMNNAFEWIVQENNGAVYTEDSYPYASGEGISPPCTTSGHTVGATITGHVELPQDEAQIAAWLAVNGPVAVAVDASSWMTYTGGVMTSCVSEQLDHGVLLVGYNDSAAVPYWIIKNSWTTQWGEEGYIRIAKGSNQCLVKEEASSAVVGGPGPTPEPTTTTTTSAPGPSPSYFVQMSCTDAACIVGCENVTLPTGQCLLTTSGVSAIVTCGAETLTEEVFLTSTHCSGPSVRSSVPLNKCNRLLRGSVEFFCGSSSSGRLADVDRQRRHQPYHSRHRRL
#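 Purified cruzain (1.5 nM final) was preincubated with compounds for 15 min at room temperature in 100 mM sodium acetate pH 5.5, 5 mM DTT, 0.01% Triton X-100. Reaction started with 2 uM Z-FR-AMC; AMC fluorescence change over 60 s gave activity.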
# RE007 growth inh = less growth of the S. pombe RE007 Vpr strain; S. pombe RE007 Vpr strain, BacTiter-Glo ATP luminescence, 24 h; control for the full effect not named in the record; Potency, µM (titrated, usually from 92.2 µM), for inactives: top-dose activity change, negative = less growth; 360,000 compounds, 0.21% hits; AID 651644; active = well fitted falling curve with a large enough effect; inconclusive = small, poorly fitted or top-dose-only effect; inactive = no such curve, though single readings can be large or run the other way;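 also: % is scaled to controls: 0 for no effect and ±100 for the full control effect; nearly all actives have a fitted effect of over 50% in size; the assay follows cell death caused by Vpr and the record does not say whether a fall means rescue or toxicity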
#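 Fission yeast strain RE007, carrying one chromosomally integrated HIV-1 vpr copy, was seeded at OD 0.01 in PMG+AL medium with 23 nL pinned compound. After 24 h at 30 °C and 99% humidity, viability was read by BacTiter-Glo luminescence.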
# Cruzain noTriton = blocks cruzain activity in detergent-free assay | Potency, µM, inactives show max response, negative = inhibition, usual class: inhibitors | 200,000 compounds, 2.3% hits | AID 1476 | P25779 | purified cruzain, Z-FR-AMC fluorescence, no detergent; active = well fitted curve in the direction sought with a large enough effect; inconclusive = small, poorly fitted or top-dose-only effect, or another doubt; inactive = no such curve, though single readings can be large; an effect the other way counts as inactive or inconclusive;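 also: plate controls were enzyme without inhibitor for no effect and buffer without enzyme for full effect; nearly all actives have a fitted effect of over 40% in size; top concentration of the series not given in the record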
#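 Detergent-free condition (0.00005% Triton X-100) in acetate buffer pH 5.5 with DTT. 1.5 nM enzyme and compound were pre-mixed 15 min, then 2 uM Z-FR-AMC substrate added; reaction progress from fluorescence change between first and third reads (60 s).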
# * marks the source's active call; other numbers are inactive results; ? = inconclusive; . = no result given; & = joins results of further samples; [ ] = remark or other dose. Unless noted, calls follow the shape of the dose curve; as a rule, active means well fitted rising curve with a large enough effect; inconclusive means small, poorly fitted or top-dose-only effect; inactive means no such curve, though single readings can be large or run the other way. Potency is read from the fitted curve at half-maximal effect.
mol	Cruzain noTriton	2A StopGo	Marburg entry inh	RE007 growth inh	NS1 function inh	SARS PLpro yeast	LASV entry inh	Cruzain inh Det
CC(=O)Nc1c(-c2ccccc2)nc2cc(C)ccn12	.	-5%	?	-3%	10%	5%	23%	.
COc1ccc(C(=O)/C=C/Nc2ccc(S(=O)(=O)Nc3ncccn3)cc2)cc1	?	.	.	.	4%	-12%	.	0.7%
CCn1c(=O)c2cc(C(=O)NCCN(C)C)sc2c2ccccc21	.	-3%	7.1µM*	-3%	3%	0%	?	.
CCOC(=O)C1=C(C)NC(=O)NC1c1ccoc1 (configuration not stated)	7%	2%	6%[46.1 µM]	-18%	-6%	0%	24%	1.9%
CCOc1ccc(Cl)cc1C(c1c(C)[nH][nH]c1=O)c1c(C)[nH][nH]c1=O	.	44%	-12%[46.1 µM]	18%	20%	-2%	-14%[46.1 µM]	.
COc1cccc(Nc2nc(CC(C)=O)ns2)c1	-6%	33%[activator]	6%	0%	-3%	-4%	-10%	2.6%
Cc1nc([N+](=O)[O-])c(C(=O)O)n1C	.	-9%	5%[46.1 µM]	3%	.	1%	24%[46.1 µM]	.
CS(=O)(=O)N1CCCC(C(=O)Nc2cccc(F)c2)C1 (configuration not stated)	.	-5%	-10%[46.1 µM]	8%	-15%	?	-2%[46.1 µM]	.
CN(CC(=O)Nc1ccccc1Cl)C(=O)CSc1ncc(C(F)(F)F)cc1Cl	?	0%	5%	-7%	0%	20%	4%	-5.7%
CCOc1ccc(S(=O)(=O)n2c(C)nc3ccccc32)cc1	-1%	-18%	22%	2%	-13%	?	0%	-0.3%
CCOc1ccccc1NC(=O)C(=O)NCC(c1cccnc1)N1CCN(c2ccccc2)CC1 (configuration not stated)	0%	?	.	.	.	.	-27%[46.1 µM]	-2.0%
COc1ccccc1/C=C/CN1CCCC(CO)(CCc2ccccc2)C1 (configuration not stated)	.	7%	?	-9%	9%	0%	-9%[46.1 µM]	.
O=C(O)CCC1=C2c3ccccc3CCN2C(=O)CC1	-4%	-16%	1%	3%	2%	-4%	0%	-0.9%
CCc1cc(CNC(=O)CCc2nnc(Cc3cccc(C)c3)o2)on1	.	15%	-4%[46.1 µM]	5%	1%	0%	?	.
CCN(C(=O)COC(=O)c1ccc(Cl)c(N)c1)C1CCS(=O)(=O)C1 (configuration not stated)	.	4%	0%	4%	.	1%	5%	.
Cc1ccc(O)c(C(=O)CC(=O)c2cccc(F)c2)c1	-1%	0%	?	?	-163%	-6%	?	-6.2%
CCn1c(CCCCc2n[nH]c(=S)n2CC)n[nH]c1=S	.	-10%	.	5%	3%	0%	.	.
CC(C)C[C@H](NC(=O)C1(c2ccccc2)CCN(C(=O)[C@H]2CSCN2C(=O)OC(C)(C)C)CC1)C(=O)O	?	-13%	?	6%	16%	15%	11%&3%	2.3%
Nc1ccc2c(c1)C(=O)Cc1ccccc1S2	?	-8%	14%	1%	21%	1%	3%	-5.5%
COc1ccc(C(=O)CCC(=O)N2CCN(c3ccc(N4CCOCC4)nn3)CC2)cc1	1%	-13%	-1%	-15%	1%	1%	.	-1.9%
O=C(Nc1cccc(C(=O)N2CCCCC2)c1)c1ccccc1Br	.	-1%	1%	37%	4%	0%	?	.
CCCCOc1ccccc1C1C(C(=O)OC)=CN(CC)C=C1C(=O)OC	?	-15%	-26%	-1%	-3%	-11%	-26%	-14%
O=C(Nc1nnc(-c2ccc3c(c2)OCCO3)o1)C1CCCCC1	.	58%[activator]	29%[46.1 µM]	15%	.	-7%	?	.
CC(C)(Oc1ccc(CCNC(=O)c2ccc(-c3ccc(Cl)cc3)o2)cc1)C(=O)O	.	40%[activator]	-1%[46.1 µM]	-11%	6%	2%	-15%	.
CCSc1nnc(Cc2cc(=O)[nH]c(=O)[nH]2)n1-c1ccc(Cl)cc1	.	-1%	.	10%	6%	-2%	.	.
O=C1CSCC(=O)N1Cc1ccc(Cl)cc1Cl	.	-26%	.	-9%	-1%	1%	.	.
COc1cccc(C2=NOC(C(=O)NCC3CCCO3)C2)c1 (configuration not stated)	-12%	10%	8%	3%	6%	2%	-1%	7.2%
Cc1cc(-c2ccc(C)c(S(=O)(=O)NCCCN3CCCCCC3)c2)on1	.	-1%	?	10%	6%	5%	24%[46.1 µM]	.
C=C(C)C(=O)N1CC2(CC(c3cccc(NC(=O)/C(C)=C\C)c3)=NO2)C[C@H]1C(N)=O (some centres not stated)	.	-1%	.	11%	0%	1%	.	.
CN1CCc2c(sc3c2C(=O)NC(c2ccc(OC(=O)c4ccccc4)cc2)N3)C1 (configuration not stated)	-4%	31%[activator]	?	.	.	.	?	-14%
COc1ccc(C2CC(c3ccc4ccccc4c3OC(C)=O)=NN2C(C)=O)cc1 (configuration not stated)	.	20%	?	-17%	3%	1%	?	.
Cc1sc(NC(=O)CCCCC(=O)Nc2sc(C)c(C)c2C(=O)O)c(C(=O)O)c1C	.	-5%	?	7%	.	.	2%[46.1 µM]	.
O=c1[nH]c(SCc2ccc(Cl)cc2)nc2c1CCC2	-3%	50%[activator]	-17%	1%	-2%	2%	9%	2.5%
CCOc1ccc(OCCC(=O)OC(C)C(=O)Nc2ccc(Cl)cn2)cc1 (configuration not stated)	.	-3%	10%	-22%	.	9%	9%	.
O=C(NC1CCCCC1)c1ccc(NS(=O)(=O)c2cccc3cccnc23)cc1	.	4%	.	-2%	-13%	-1%	.	.
Cc1sc2ncnc(NCCCn3ccnc3)c2c1C	-1%	-25%	8%	-3%	2%	5%	12%	2.4%
Cc1ccc(C(=O)OC(C)CN2C(C)CCCC2C)cc1 (configuration not stated)	.	-5%	?	3%	1%	-1%	-21%[46.1 µM]	.
CCCS(=O)(=O)c1nc(S(=O)(=O)c2ccc(C)cc2)c(N2CCN(CC)CC2)s1	.	-2%	.	1%	-3%	0%	.	.
CN(C(=O)c1ccc2nc(N)sc2c1)c1ccccc1	.	3%	?	7%	23%	-5%	13%[46.1 µM]	.
Cc1ccc(CC(CC(=O)NCCc2ccc3c(c2)OCO3)C(=O)O)cc1 (configuration not stated)	4%	4%	0%	18%[3.69 µM]	1%	38%	15%	1.2%
CCOC(=S)SCC(=O)Nc1ncc(C)s1	.	25µM*	?	11%	-4%	2%	7%	.
O=C(COc1ccc2ccccc2c1)Nc1cccnc1Cl	.	43%[activator]	?	12%	-12%	-2%	23%[46.1 µM]	.
CCOC(=O)c1c(C)oc2ncnc(Nc3cccc(C(F)(F)F)c3)c12	-4%	10%	7%[46.1 µM]	.	.	.	-4%[46.1 µM]	2.9%
CCCCN(C)CCNC(=O)CCNC(=O)Cn1ccc2ccccc2c1=O	.	-3%	8%[46.1 µM]	-5%	-1%	0%	7%[46.1 µM]	.
COc1ccc(NCc2nnc(SCC(=O)Nc3ccccc3OC)o2)cc1	0%	-14%	7%	3%	-3%	-9%	9%	7.8%
CCOC(=O)c1cnc(-n2nc(C)cc2C)nc1NNc1nc(C)cc(C)n1	.	-17%	.	0%	-2%	0%	.	.
Cc1ccc(SCc2nc(-c3ccc(C(=O)NCc4ccccc4Cl)cc3)oc2C)cc1	?	-22%	.	.	.	.	?	-6.8%
O=C(NCCc1ccc(Cl)cc1)C1CCN(c2ncccn2)CC1	.	-8%	2%[46.1 µM]	2%	2%	1%	12%	.
COc1cc(-c2noc(CN3CCN(c4ccccc4)CC3)n2)cc(OC)c1OC	-13%	-27%	21%[46.1 µM]	.	.	.	24%[46.1 µM]	-2.3%
COCc1c(C(=O)N2CCN(Cc3nc4ccccc4s3)CC2)oc2ccccc12	.	-8%	27%	-28%	.	-4%	20%	.
CNC(C)(C)Cc1ccccc1	14%&-2%	-20%&-13%	.	1%[18.4 µM]	.	.	.	3.1%&1.1%
CC(C)n1ncc2c(C(=O)O)cc(C3CC3)nc21	.	-16%	.	-5%	3%	1%	.	.
COc1cc(C2(c3ccc(O)c(OC)c3)C(=O)N(C)c3ccc(C)cc32)ccc1O	.	1%	?	20%	.	.	0%[46.1 µM]	.
Cc1cc2oc(=O)cc(CSc3nc(N)cc(N)n3)c2cc1C(C)C	?	-12%	-7%	7%	12%	2%	11%	-11%
Cc1ccc(S(=O)(=O)NCCCCCC(=O)Nc2c(C)n(C)n(-c3ccccc3)c2=O)cc1	.	-16%	.	-3%	-4%	-3%	.	.
O=C(CSc1nnc2ccc(-c3ccccn3)nn12)Nc1ccc(F)cc1F	.	10%	9%	-3%	.	-4%	15%	.
COc1ccc(C(=O)NCC2(c3ccccc3)CCOCC2)cc1	.	42%[activator]	15%[46.1 µM]	6%	-1%	2%	-3%	.
COc1ccc(N2CCN(CCNC(=O)Nc3cccc(C)c3C)CC2)cc1	.	-16%	.	4%	0%	0%	.	.
Cn1c(SCC(=O)NCC2CCCO2)nc2c([nH]c3ccccc32)c1=O (configuration not stated)	9%	.	0%	1%	3%	-3%	3%	-7.3%
Cc1ccccc1OCC(=O)N/N=C/c1cccc2cccnc12	.	-13%	?	-23%	-84%	29%	?	.
Cn1c(SCC(=O)Nc2cccnc2Cl)nnc1-c1ccco1	.	-3%	5%[46.1 µM]	-7%	.	.	-4%[46.1 µM]	.
OCc1ccc(-c2ccccc2)c(-c2ccccc2)c1	.	-4%	-2%[46.1 µM]	-8%	.	.	27%[46.1 µM]	.
Cc1ccc(S(=O)(=O)Nc2ccncc2)c(C)c1	.	30%	9%	-23%	3%	0%	7%	.

# Bioassay records from PubChem BioAssay.
